Compound activity as filed in PubChem.
D2 potentiator: Beta-Arrestin HTS for Positive Allosteric Modulators of the Human D2 Dopamine Receptor: Potentiators; D(2) dopamine receptor (Homo sapiens), P14416; DiscoveRx D2 beta-arrestin cells, luminescence, 90 min; 100% = 57 uM dopamine signal; potentiation, % (no concentration beside the values); 0.23% of 360,000 active; AID 624464, 2012; active = potentiation of 50% or more; inconclusive = 30% to 50%; inactive = 30% or less;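 note: compound concentration not given in the record; tested on top of an EC20 dose of dopamine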
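PathHunter beta-arrestin assay in DiscoveRx D2 cells. Compounds were added with an EC20 of dopamine (50 nM final) for 90 min at 37 deg C. Luminescence was read 1 h after detection reagent, with 57 uM dopamine as the EC100 control.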
ClpP mod: qHTS Assay for Activators of ClpP. ATP-dependent Clp protease proteolytic subunit (Bacillus subtilis (strain 168)), P80244. purified B. subtilis ClpP, FRET peptide cleavage, 20 min. Potency, µM (highest dose often 57.5 µM), for inactives: at the highest dose activity change, negative = active. 1.9% of 340,000 active. AID 651965, 2013; active = well fitted falling curve with a large enough effect; inconclusive = small, poorly fitted or top-dose-only effect; inactive = no such curve, though single readings can be large or run the other way; note: potency is the fitted concentration of half-maximal effect; the source files actives as falling curves though it sought activators and does not explain the sign; nearly all actives have a fitted effect of over 65% in size; many hits overshoot -100%
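FRET quenching reversal measured ClpP activation: 10 microg/mL B. subtilis ClpP at pH 8 with the FRET-FV decapeptide, read at 430 nm after 320 nm excitation. The 20-min minus 0-min signal was scaled between DMSO/no-enzyme wells and ADEP (5.8 microM final).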
TRPV1 potentiator: HTS Assay for Compounds that Act as Potentiators of the Vanilloid Receptor 1; potentiation, % at 8.33 µM; Transient receptor potential cation channel subfamily V member 1 (Homo sapiens), Q8NER1; TRPV1-expressing cells, Fluo-8 calcium influx, capsaicin EC20 potentiation; host cell line not named in the record; control for the full effect not named in the record; 0.02% of 320,000 active; active means potentiation above 80%; inconclusive means 30% to 80%; inactive means below 30%; note: 0% is about no effect
Target sequence (Q8NER1 whole entry, looked up): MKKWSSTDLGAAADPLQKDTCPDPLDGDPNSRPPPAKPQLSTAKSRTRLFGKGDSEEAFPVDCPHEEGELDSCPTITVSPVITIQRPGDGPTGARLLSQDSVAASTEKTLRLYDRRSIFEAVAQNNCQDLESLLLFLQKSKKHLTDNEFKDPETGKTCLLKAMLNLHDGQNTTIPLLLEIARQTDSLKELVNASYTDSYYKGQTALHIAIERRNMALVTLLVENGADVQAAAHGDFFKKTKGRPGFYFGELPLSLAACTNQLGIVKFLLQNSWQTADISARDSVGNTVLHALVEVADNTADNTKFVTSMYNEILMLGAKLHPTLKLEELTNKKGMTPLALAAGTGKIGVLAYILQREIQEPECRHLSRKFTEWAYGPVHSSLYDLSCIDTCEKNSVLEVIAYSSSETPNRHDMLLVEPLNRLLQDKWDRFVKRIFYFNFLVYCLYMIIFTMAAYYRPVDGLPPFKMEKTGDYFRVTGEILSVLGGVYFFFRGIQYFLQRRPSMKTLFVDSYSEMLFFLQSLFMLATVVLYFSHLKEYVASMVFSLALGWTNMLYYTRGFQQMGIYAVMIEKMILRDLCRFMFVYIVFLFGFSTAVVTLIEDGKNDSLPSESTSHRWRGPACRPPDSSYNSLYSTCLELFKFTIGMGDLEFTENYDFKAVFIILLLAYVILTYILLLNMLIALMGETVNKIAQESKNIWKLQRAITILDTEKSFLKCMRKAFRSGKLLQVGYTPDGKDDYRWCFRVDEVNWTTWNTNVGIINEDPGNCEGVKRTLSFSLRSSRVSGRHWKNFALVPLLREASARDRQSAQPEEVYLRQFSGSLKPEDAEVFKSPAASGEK
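Cells expressing TRPV1 were dye-loaded with Fluo-8 and read kinetically: 10 s baseline, 3 min after compound (agonist portion), then 2 min after EC20 capsaicin (allosteric enhancer portion). Calcium-bound dye fluorescence at 480/520 nm.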
Sfp inh: qHTS Assay for Inhibitors of Bacillus subtilis Sfp phosphopantetheinyl transferase (PPTase). AID 1490, 2009. Potency, µM, for inactives: max response, negative = inhibition, usual class: inhibitors. Biochemical Sfp PPTase activity, qHTS. 3.5% of 310,000 active; active = well fitted inhibition curve with a large enough effect; inconclusive = small, poorly fitted or top-dose-only effect, or another doubt; inactive = no such curve, though single readings can be large or run the other way;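 note: the enzyme is Sfp with the accession as filed and its product quenches rhodamine fluorescence; potency is the fitted concentration of half-maximal effect; 0% = enzyme reaction without inhibitor and -100% = no enzyme wells; top concentration of the series not given in the record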
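After 15 min at room temperature with compound, 15 nM Sfp received 5 uM rhodamine-CoA plus 12.5 uM BHQ-2-ybbR (50 mM Hepes pH 7.6, 10 mM MgCl2). Rate came from the fluorescence difference over 30 min, ex 525/em 598 nm.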
gsp antag: qHTS for Antagonists of gsp, the Etiologic Mutation Responsible for Fibrous Dysplasia/McCune-Albright Syndrome: qHTS | AID 624288, 2012 | gsp-mutant cells, cAMP HTRF, 30 min; control for the full effect not named in the record | Potency, µM (doses to about 76.9 µM), for inactives: at the top dose activity change, negative = inhibition, hits mostly inhibitors | 0.4% of 340,000 active; active = falling curve of any shape with a large fitted effect; inconclusive = falling curve, mostly with a smaller effect; inactive = flat or rising curve; cell line not stated here;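 note: intracellular cAMP measured with PDE inhibitor Ro 20-1724 present during compound exposure; potency is the fitted concentration of half-maximal effect; % is set by controls: 0 for no effect and ±100 for the full control effect; nearly all actives have a fitted effect of over 65% in size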
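HTRF cAMP read-out (cAMP-d2 plus anti-cAMP antibody-K in lysis buffer, 30 min RT). Before lysis, cells are exposed to compounds with […] for 30 min at 37C in DPBS containing Ca/Mg, BSA and Tween 20.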
Menin-MLL FL inh: qHTS Assay for Inhibitors Targeting the Menin-MLL Interaction in MLL Related Leukemias: Competition With Fluorescein Labeled MLL-derived Peptide | 290,000 tested, under 10 active | FP activity change, % at 61.4 µM | Fluorescence polarization, fluorescein-MLL peptide displacement from menin; inconclusive = falling polarisation curve, or a change in total fluorescence; inactive = total fluorescence flat and polarisation flat or rising; no compound was filed as active; the % refers to the polarisation; negative = inhibition;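 note: % of control where 0% means no effect; inhibitors lower the polarisation; unlabelled MLL peptide was the positive control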
gsp agonist: qHTS for Agonist of gsp, the Etiologic Mutation Responsible for Fibrous Dysplasia/McCune-Albright Syndrome: qHTS | gsp mutant cells, cAMP HTRF, 30 min; control for the full effect not named in the record | Potency, µM (doses to about 76.9 µM), inactives show at the top dose activation (cAMP increase), actives largely listed as activators | 0.13% of 340,000 active | AID 624287, 2012; active = well fitted activation curve with a large enough effect; inconclusive = small, poorly fitted or top-dose-only effect, or another doubt; inactive = no such curve, though single readings can be large or run the other way; cell line not stated here;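 note: phosphodiesterase inhibitor Ro 20-1724 added with compounds to block cAMP breakdown; potency is the fitted concentration of half-maximal effect; nearly all actives have a fitted effect of over 60% in size; about a fifth of the inactives were tested at one dose only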
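Cells stably selected in G418 were plated at 2000/well, grown 16-24 hr, then given compounds in DMSO with the PDE inhibitor […] (300 uM solution added) for 30 min at 37C; cAMP was read by HTRF.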
Starred values were filed as active, the others as inactive; u = inconclusive; x = not tested or not shown; [ ] = remark or other dose.

SMILES	D2 potentiator	ClpP mod	TRPV1 potentiator	Sfp inh	gsp antag	Menin-MLL FL inh	gsp agonist
CC(C)n1ncc(C(N)=O)c1N	-8	-3.2%	-2	23%	10%	-4.5	8%
CC(=O)N1CCN(C(=O)c2cc3ccccc3o2)CC1	-8	x	-3	0%	-3%	-5.8	22%
COCC(=O)NC1CCN(C(=O)Nc2ccc(Br)cc2)CC1	0	-1.7%	22	4%	0%	2.1	-13%
Cn1ccc(=Nc2ccc(NC(=O)c3ccc(N=c4ccn(C)c5ccc([N+](=O)[O-])cc45)cc3)cc2)cc1	-8	0.7%	23	12%	9%	1.3	-16%
CCCC(NC(=O)COc1cc2c(c3oc(=O)cc(C)c13)CCC(C)(C)O2)C(=O)O (stereo unspecified)	2	3.3%	-6	10%	-18%	-0.6	17%
CC(Sc1ncnc2ccccc12)C(=O)Nc1ccc2c(c1)OCO2 (stereo unspecified)	4	-0.4%	10	8%	15%	1.7	4%
NC(=O)C1CCN(C(=O)COc2ccc3ccc(=O)oc3c2)CC1	-4	5.0%	8	1%	4%	-3.9	x
CSCCC(NC(=O)c1ccc(Cl)cc1Cl)C(=O)OC1CCCCC1=O (stereo unspecified)	-1	-1.5%	-10	x	0%	x	-1%[15.4 µM]
CCc1nnc(NC(=O)CSc2nnc(-c3ccco3)n2C)s1	-15	0.3%	-2	2%	15%	-2.6	u
N#Cc1cccc(NC(=O)CCn2ccnc2)c1	-8	-0.3%	-5	12%	1%	-1.3	25%
COc1ccccc1NC(=S)N(CCCN1CCOCC1)Cc1ccccn1	-7	-6.9%	-19	-6%	-4%	-0.9	-1%[15.4 µM]
COCCn1c(C)cc(/C=C2/SC(=O)N(CC(=O)N3CCCC3)C2=O)c1C	0	x	-1	11%	28%	7.5	-7%[15.4 µM]
CC1CCN(c2nc(-c3ccco3)c3c(c2C#N)CC(C)(C)OC3)CC1	-10	4.3%	28	14µM*	-11%	1.8	18%
O=[N+]([O-])c1ccc(N2CCCCC2)cn1	-9	-0.8%	3	9%	9%	2.0	3%
Cc1cnn(CCC(=O)NNC(=S)Nc2ccc(F)cc2)c1	-44	-1.9%	-1	14%	12%	1.4	19%
COc1cc(C(=O)Nc2cc(OC)c(OC)c(OC)c2)ccc1OCc1c(C)noc1C	10	-0.3%	x	x	-2%	x	-17%[15.4 µM]
O=C(O)c1ccc(NC(=O)C2CCCCC2)cc1	0	-1.5%	10	9%	-1%	0.2	u
CCOC(=O)N1CCN(C(c2ccc(C(C)C)cc2)c2sc3nc(C)nn3c2O)CC1 (stereo unspecified)	14	0.5%	-5	-8%	-8%	-0.6	17%
CCOc1ccccc1-n1c(SCC(N)=O)nnc1-c1cccnc1	-18	-0.7%	9	-1%	10%	1.4	0%
CC(=O)c1ccc(NC(=O)COC(=O)CCC2CCCC2)cc1	1	x	x	x	10%	x	22%
CCOC(=O)N1CCC(n2c(SCC(=O)OCc3ccccc3)nc3ccsc3c2=O)CC1	0	0.3%	-4	u	5%	2.4	-1%
S=C(NCc1cccc(Cl)c1)NCc1ccco1	-18	-1.8%	-11	0%	2%	0.8	u
COc1cc(S(=O)(=O)NCCCN2CCOCC2)ccc1-n1cnnn1	-5	x	1	-17%	3%	0.2	2%
CC(=O)c1sc2nsc(SCCN3CCOCC3)c2c1N	-3	x	-23	8.9µM*	-8%	u	-3%[15.4 µM]
O=C1CCCN2N=C(SCC(=O)Nc3nccs3)SC2=N1	-6	x	2	7%	-2%	2.1	35%

(further entries)
SMILES	D2 potentiator	ClpP mod	TRPV1 potentiator	Sfp inh	gsp antag	Menin-MLL FL inh	gsp agonist
CSc1ccc(NC(=O)NCCCN2CCC(Cc3ccccc3)CC2)cc1	-17	1.3%	-1	-8%	17%	0.2	4%
Cc1ccc2c(c1)N(CC(=O)NC1CCCC1)C(=O)c1cccnc1O2	2	1.1%	-5	5%	1%	-3.7	8%
Cc1nc2ccc(S(=O)(=O)NCC(=O)NCCN3CCCCC3C)cc2s1 (stereo unspecified)	10	-0.7%	-2	5%	5%	6.2	9%
O=C(C1CC(c2ccc(F)cc2)=NO1)N1CCc2ccccc2C1 (stereo unspecified)	-2	0.4%	-18	2%	-12%	5.2	-15%
CCCNc1nc(Cl)nc(NCc2cccnc2)n1	-6	x	29	11%	-1%	5.9	-7%[15.4 µM]
Cc1ccc(-n2nnnc2SCc2nnc(-c3ccccc3Br)o2)c(C)c1	-2	-0.1%	16	8%	-19%	-1.7	-14%
N#Cc1c(SCC(=O)Nc2nc3ccccc3s2)sc2c(O)cc(=O)[nH]c12	-5	-1.2%	6	x	-2%	x	-21%
CCOc1ccc(C(=O)Nc2ccncc2)cc1	0	-2.0%	11	-3%	-11%	5.9	18%
COc1ccc2[nH]c(=O)c(CN(c3ccccc3)S(=O)(=O)c3ccccc3)cc2c1	-2	-9.2%	11	4%	3%	x	-2%
Cc1cccc(OCc2nc(C#N)c(N3CCCC3)o2)c1	-7	0.3%	-22	-8%	-6%	1.6	-5%[15.4 µM]
COc1c(C)cc(C(=O)C2CCCN(C(=O)/C=C/c3ccccn3)C2)cc1C (stereo unspecified)	-6	x	-11	20%	-2%	0.4	-4%[15.4 µM]
N#C/C(=C\c1cccc([N+](=O)[O-])c1)C(=O)Nc1cccnc1	-4	x	8	-15%	13%	1.1	-10%[15.4 µM]
CCOc1cc(CNc2ccc(N3CCCC3)cc2)cc(Cl)c1OC	1	-27%	2	u	6%	-4.0	-13%
CC(=O)c1cc2c(cc1NC(=O)CN1CCN(c3ccc(F)cc3)CC1)OCO2	3	2.3%	3	19%	-6%	-0.5	3%
COc1ccc(-c2[nH]ncc2CN2C[C@@H]3CCC[C@H]2C3)c(F)c1	-10	x	-13	10%	-5%	-0.4	22%[15.4 µM]
Cn1cc(CN2CCN(Cc3cccnc3)CC2)c(-c2ccc3c(c2)OCCO3)n1	-9	x	-10	29%	6%	-5.4	u
COc1ccc(CCNC(=O)c2ccccc2OCc2ccccc2)cc1	9	5.1%	7	-12%	-9%	x	16%[15.4 µM]
Nc1nc(-c2ccco2)nn1S(=O)(=O)c1ccccc1	-5	x	1	20%	15%	0.1	0%[15.4 µM]
CN(c1ccccc1)S(=O)(=O)c1ccc(C(=O)N2CCN(c3ccccc3Cl)CC2)cc1	-15	-0.3%	x	x	2%	x	20%
COc1cccc(Cn2nnc(C(=O)NCc3ccc4c(c3)OCO4)c2N)c1	-5	x	5	7%	2%	5.8	14%[15.4 µM]
CC(=O)NCCC(Cc1ccccc1)c1ccco1 (stereo unspecified)	-26	-5.5%	-7	-12%	0%	4.8	-3%
CCC(C)NC(=O)CSc1ccc(S(=O)(=O)N2CCN(Cc3ccccc3)CC2)cn1 (stereo unspecified)	-6	1.2%	-20	x	-8%	x	-2%
COc1ccc(-c2nsc3c(N4CCCCC4C)ncnc23)cc1 (stereo unspecified)	1	-29%	12	-10%	-26%	0.1	-41%[inhibitor]
Cc1ccc(NC(=O)CCN2C(=O)NC3(CCCC3)C2=O)cc1S(=O)(=O)N1CCOCC1	-4	-0.8%	26	x	8%	x	8%
O=C(CCc1cnccn1)NC1CCCc2c1cnn2-c1ccc(F)cc1F (stereo unspecified)	3	-2.0%	18	4%	0%	7.3	-21%
